Source: PubChem (several laboratories)
RGS16-Gao: modulators of RGS16 binding to Galphao, primary screen, biochemical, human proteins, multiplexed bead flow cytometry | AID 1441, 2008 | bead-based flow cytometry RGS16-Galphao binding, fluorescence; actives lie on both sides | binding response (% of control), % at 10 µM | actives 0.38% (n = 220,000);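 active means below 25% or above 175%, edge rows of some plates excepted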;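 further: Galphao activated by GDP with aluminum fluoride before binding; 100% = wells without compound and 0% = beads without RGS; some results beyond the cut were filed as inactive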
Target sequence (O15492 whole entry, looked up): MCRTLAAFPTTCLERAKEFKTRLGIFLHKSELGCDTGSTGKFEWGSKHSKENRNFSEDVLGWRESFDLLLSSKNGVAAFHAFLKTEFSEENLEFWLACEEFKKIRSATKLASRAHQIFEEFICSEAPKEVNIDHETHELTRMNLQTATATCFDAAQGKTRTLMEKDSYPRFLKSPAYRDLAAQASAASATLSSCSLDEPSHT
Target sequence (P09471 whole entry, looked up): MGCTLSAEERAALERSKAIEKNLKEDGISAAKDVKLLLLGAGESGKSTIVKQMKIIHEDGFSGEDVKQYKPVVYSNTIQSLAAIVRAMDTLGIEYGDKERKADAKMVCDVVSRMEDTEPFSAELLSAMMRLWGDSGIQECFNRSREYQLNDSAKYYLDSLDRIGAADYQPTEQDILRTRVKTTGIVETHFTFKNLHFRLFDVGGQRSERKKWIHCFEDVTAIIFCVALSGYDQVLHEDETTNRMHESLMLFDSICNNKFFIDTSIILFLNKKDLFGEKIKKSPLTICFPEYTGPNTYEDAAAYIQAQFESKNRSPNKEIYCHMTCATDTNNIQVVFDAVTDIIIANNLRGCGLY
PKD1 inh: inhibitors of human PKD1 kinase, biochemical, fluorescence polarization; Serine/threonine-protein kinase D1 (Homo sapiens), Q15139; PKD1 kinase fluorescence polarization assay; inhibition, %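 (about 10 µM by stock and volumes)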; actives 0.056% (n = 200,000); AID 797, 2007;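 active means inhibition of 50% or more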;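 further: controls were vehicle for no effect and a reference inhibitor for full effect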
GALR2 ag: GALR2 receptor agonists, primary screen, cell-based | GALR2-expressing cells, agonist activation read-out | activation, %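 (tested at 5 µM)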 | actives 0.48% (n = 140,000) | AID 803, 2007;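 active means above mean plus 3 SD of all compounds, about 5% in these data, not always enough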;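 further: 0% = vehicle buffer wells and 100% = reference agonist at full effect; tested in CHO reporter cells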
Target sequence (O43603 whole entry, looked up): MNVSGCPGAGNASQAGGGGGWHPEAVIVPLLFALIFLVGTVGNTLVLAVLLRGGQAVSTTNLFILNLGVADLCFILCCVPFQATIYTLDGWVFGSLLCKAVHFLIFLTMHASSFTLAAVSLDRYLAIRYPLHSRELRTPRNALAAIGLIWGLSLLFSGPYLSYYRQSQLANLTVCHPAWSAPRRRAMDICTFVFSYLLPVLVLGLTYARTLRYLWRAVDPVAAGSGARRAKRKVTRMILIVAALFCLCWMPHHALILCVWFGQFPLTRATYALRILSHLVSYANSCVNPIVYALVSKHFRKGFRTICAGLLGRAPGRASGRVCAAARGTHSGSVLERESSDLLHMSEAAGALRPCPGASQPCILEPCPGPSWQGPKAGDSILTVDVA
Insulin prom inh: inhibitors of insulin promoter-driven GFP, primary screen, imaging, TRM-6 cells (human fetal islet line), eGFP reporter, cell count; reporter expression induced with tamoxifen; actives 0.9% (n = 130,000); inhibition, % at 2 µM;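 active means inhibition above the mean plus 3 SD, with well images judged a real hit on visual review, cut at about 60% in these data, passing the limit was not always enough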
HSV replic up: enhancers of HSV replication in host cells, fold increase, host cell viability. actives 0.005% (n = 220,000). HSV replication augmentation in cells. maximum fold increase;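 active means peak rise of 1.5-fold or more in the series; tested in PC3 cells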;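 further: first round at 10 µM; read as green reporter fluorescence; hits show the peak of a series up to 25 µM; 1 = signal of infected wells without compound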
Insulin prom inh cell count: second read-out of Insulin prom inh, no call of its own (marks repeat the call); normalized cell count, %; measured here: cell count, toxicity; reference of the scale not given here;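 cells exposed to compound for 48 h; stained nuclei by imaging scaled within each plate; lower means fewer cells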
HSV replic up primary fold: further read-out of HSV replic up, marked with its call; fold increase; compound at 10 µM; measured here: primary screen fold increase 10 uM; tested in PC3 cells;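 GFP signal in the first replicate; 1 = infected wells without compound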
* hit, by the source's call; i = inactive; nt = no result given; & = joins results of further samples. Rows are unselected. Share with any hit: about 1.1%.

SMILES | RGS16-Gao | PKD1 inh | GALR2 ag | Insulin prom inh | Insulin prom inh cell count | HSV replic up | HSV replic up primary fold
COc1ccc(S(=O)(=O)N2Cc3ccccc3CC2C(=O)Nc2ccc(O)cc2)cc1OC (stereo unspecified) | 61 | -7 | -1.7 | nt | nt | i | 0.77
O=C1/C(=C/c2cccnc2)CCc2c1[nH]c1ccccc21 | 104 | -7 | nt | nt | nt | i | 0.88
CC(C)c1ccc(-n2cnn(-c3ncccc3[N+](=O)[O-])c2=O)cc1 | 101 | 3 | nt | nt | nt | i | 0.72
O=C(Nc1cccc(S(=O)(=O)N2CCOCC2)c1)c1cc2ccccc2o1 | 101 | nt | nt | nt | nt | i | 0.82
Cn1c(=O)n(C)c2cc(NC(=O)c3cc4ccccc4o3)ccc21 | 96 | -3 | -2.1 | -40 | 254 | i | 0.96
Cc1ccc2cc(CNC(C)(C)C)c(=O)[nH]c2c1 | 102 | 19 | 1.0 | -7 | 65 | i | 1.1
CCC(=O)c1ccccc1OCCSc1nc(C)cc(=O)[nH]1 | 91 | 1 | -1.3 | -313 | 59 | i | 0.8
Cc1cc(C)cc(OC(=O)N2CCOCC2)c1 | 107 | -5 | -1.4 | 43 | 67 | i | 0.88
CN(C)/C=C(\C#N)C(=O)N/N=C/c1ccccc1 | 107 | 5 | nt | 0 | 164 | i | 0.98
O=C(Nc1ccc(S(=O)(=O)Nc2ncccn2)cc1)c1ccc2ncsc2c1 | 104 | nt | nt | nt | nt | i | 1
O=C(Nc1ccc(N2CCN(C(=O)c3ccc(Cl)cc3)CC2)cc1)c1ccc2c(c1)OCCO2 | 101 | 2 | -1.9 | 43 | 86 | i | 0.82
CCc1ccc(NC(=O)CC2C(=O)N(c3ccc(C)cc3)C(=O)N2CCc2ccncc2)cc1 (stereo unspecified) | 104 | -4 | nt | nt | nt | i | 0.96
Cc1ccccc1-n1c(C)nnc1SCC(=O)N(C)C1CCS(=O)(=O)C1 (stereo unspecified) | 68 | 3 | nt | -36 | 168 | i | 1.1
O=C(NC(=S)NNS(=O)(=O)c1ccccc1)c1ccc([N+](=O)[O-])cc1 | 99 | -6 | -1.3 | 26 | 78 | i | 1
CCOc1ccccc1NC(=O)C(Sc1ccccc1)c1ccccc1 (stereo unspecified) | 112 | 1 | -1.6 | -22 | 75 | i | 0.93
N#C/C(C(=O)Oc1ccccc1)=C1/Nc2ccccc2-c2ccccc21 | 98 | -1 | -1.4 | 54 | 79 | nt | nt
COc1ccc(NC(=O)N(Cc2cc3ccc(OC)cc3[nH]c2=O)CC2CCCO2)cc1 (stereo unspecified) | 106 | -8 | nt | nt | nt | i | 0.79
Cc1ccc(/C=C2/SC(=S)N(CCCC(=O)Nc3ccc(O)cc3)C2=O)cc1 | 106 | -2 | nt | nt | nt | i | 0.92
O=C(CCN1C(=O)C2C3C=CC(C3)C2C1=O)Nc1nccs1 (stereo unspecified) | 100 | 5 | -1.8 | -62 | 83 | i | 0.97
CCC1Oc2ccc(C)cc2N(CC(=O)NCCN2CCCCCC2)C1=O (stereo unspecified) | 110 | -2 | 0.3 | nt | nt | i | 0.68
COc1ccc(N2CCN(c3nc4ccccc4n3CC(=O)c3ccccc3)CC2)cc1 | 103 | -7 | -2.5 | 33 | 103 | i | 0.91
CCC(=O)N1CCN(c2ccc(NC(=O)c3cccs3)cc2)CC1 | 93 | -5 | -2.2 | -72 | 120 | i | 0.78
CCN1C(=O)Cc2cc(S(=O)(=O)N3CCOCC3)ccc21 | 96 | -13 | 0.1 | 0 | 211 | i | 0.91
COC(=O)/C=c1/s/c(=C(/C#N)C(=O)N2CCCCC2)n(-c2ccccc2)c1=O | 99 | -6 | 1.3 | nt | nt | i | 1
O=c1c2ccccc2nc(SCc2cc(F)cc3c2OCOC3)n1Cc1ccco1 | 107 | -7 | 0.2 | 24 | 84 | i | 1.1
CCOC(=O)c1c(NC(=O)CNCCO)sc(C)c1C | 99 | -7 | -1.8 | 20 | 212 | i | 0.98
O=C1CN(C(=O)COC(=O)c2cccnc2Cl)c2ccccc2N1 | 106 | -8 | nt | 32 | 128 | i | 1
O=C1CS/C(=C\[N+](=O)[O-])N1c1ccccc1 | 107 | -8 | -0.2 | nt | nt | i | 0.79
Clc1ccc(CSc2nnc(NC3=NCCCCC3)s2)cc1 | 97 | 6 | -2.3 | -28 | 187 | i | 0.95
COc1ccccc1NC(=O)N1CCN(c2ccccn2)CC1 | 97 | 3 | -1.7 | nt | nt | i | 0.97
O=C(O)C1CCCN(S(=O)(=O)c2ccccc2)C1 (stereo unspecified) | 93 | -2 | nt | nt | nt | i | 1.1
COc1ccc(C2CC3CC(c4ccccc4)N2O3)cc1 (stereo unspecified) | 103 | -10 | -2.5 | -13 | 141 | i | 1.1
COc1cccc(C(=O)NC(C)C(c2cccs2)N2CCOCC2)c1 (stereo unspecified) | 110 | -5 | -1.2 | nt | nt | i | 1.1
CCOC(=O)CNC(=O)Cn1cnc2c(nnn2-c2ccc(F)cc2)c1=O | 59 | -6 | -1.1 | nt | nt | i | 1.1
Cc1cccc(C)c1NC1=NC(=S)N(c2ccc(C(=O)O)cc2)C12CCCCC2 | 101 | 9 | nt | nt | nt | i | 1.1
Cc1nn(Cc2ccccc2)c(Cl)c1C(=O)OC(C)C#N (stereo unspecified) | 103 | -3 | nt | nt | nt | i | 0.86
CCOC(=O)c1sc(C)c(C(=O)NCCCN2CCOCC2)c1N | 101 | 0 | -1.6 | nt | nt | i | 0.95
O=C(O)/C=C/C(=O)Nc1ccc(Cl)c(C(=O)O)c1 | 101 | nt | nt | nt | nt | i | 1.2
COc1cc(NC(=O)c2cccs2)ccc1NC(=O)c1ccccc1Cl | 106 | 1 | nt | nt | nt | i | 0.91
O=C(COC(=O)CCc1nc2ccccc2c(=O)[nH]1)NC(=O)NC1CCCC1 | 108 | -7 | -1.2 | 7 | 77 | i | 1
CCCc1ccc(OCc2ccc(C(=O)NCc3cccnc3)o2)c(OC)c1 | 97 | -1 | nt | -80 | 75 | i | 0.81
COc1cccc(-c2noc(CCC(=O)NC3CCCCC3)n2)c1 | 104 | -6 | -1.3 | -149 | 108 | i | 0.98
COC(=O)CCn1nnc(-c2ccc(C(C)C)cc2)n1 | 99 | 11 | -2.3 | -107 | 92 | i | 0.87
O=C(Cn1cc2c(n1)CCCCC2)NCc1cccs1 | 89 | 0 | nt | nt | nt | i | 1.2
CC(C)(C)OC(=O)NCCCC[C@H](NC(=O)c1[nH]cnc1C(=O)N[C@@H](Cc1ccccc1)C(=O)OC(C)(C)C)C(=O)OC(C)(C)C | 88 | nt | nt | nt | nt | i | 0.87

At a glance, 3 of the compounds above.
SMILES | RGS16-Gao | PKD1 inh | GALR2 ag | Insulin prom inh | Insulin prom inh cell count | HSV replic up | HSV replic up primary fold
O=C(O)C1CCCN(S(=O)(=O)c2ccccc2)C1 (stereo unspecified) | 93 | -2 | nt | nt | nt | i | 1.1
COc1ccc(C2CC3CC(c4ccccc4)N2O3)cc1 (stereo unspecified) | 103 | -10 | -2.5 | -13 | 141 | i | 1.1
COc1cccc(C(=O)NC(C)C(c2cccs2)N2CCOCC2)c1 (stereo unspecified) | 110 | -5 | -1.2 | nt | nt | i | 1.1

Next section
SMILES | RGS16-Gao | PKD1 inh | GALR2 ag | Insulin prom inh | Insulin prom inh cell count | HSV replic up | HSV replic up primary fold
CC1=C(C#N)C(c2ccoc2)C(C(=O)OCc2ccccc2)=C(N)S1 (stereo unspecified) | 103 | -5 | -0.6 | -5 | 51 | i | 1.1
CCOC(=O)c1sc(=S)n(CC)c1NC(=O)CC | 88 | 3 | 0.3 | 4 | 108 | i | 0.94
Cc1ccc(-c2cc(N)n(-c3ccccc3)n2)cc1 | 88 | -6 | -0.3 | 19 | 126 | i | 1
O=c1[nH]c2ccc(NC(=S)Nc3ccccc3)cc2[nH]1 | 106 | 2 | nt | nt | nt | i | 0.98
COc1ccc(C(=O)c2c[nH]c(C(=O)NCCCn3ccnc3)c2)cc1 | 180 | -7 | nt | -27 | 85 | i | 0.96
CCCCOC(=O)c1ccc(NC(=O)CSc2nncn2C)cc1 | 98 | 3 | -0.1 | nt | nt | i | 1
Oc1ccc(-c2nccc(-c3cccs3)n2)cc1 | 100 | -4 | -1.2 | 4 | 105 | i | 0.84
O=C(CSCc1ccc(Cl)cc1)N/N=C/c1c(Cl)cccc1Cl | 108 | -9 | 0.7 | 7 | 118 | i | 0.96
Cc1ccc(NC(=O)COC(=O)c2cccnc2)c(C)c1 | 93 | -5 | nt | nt | nt | i | 0.78
Cc1ccc(S(=O)(=O)NNC(=O)c2sc3nc(C)cc(C)c3c2-n2cccc2)cc1 | 87 | 3 | -0.4 | -4 | 97 | i | 1
NC(=O)CC(NC(=O)c1cccc(Br)c1)c1ccc(N2CCC(N3CCCC3)CC2)c([N+](=O)[O-])c1 (stereo unspecified) | 98 | nt | nt | nt | nt | i | 0.85
COc1ccccc1C(=O)Nc1ccc(-c2nnn(CC(=O)N3CCN(C(=O)c4ccco4)CC3)n2)cc1 | 107 | 3 | nt | nt | nt | i | 0.96
COc1ccc(CCNC(=O)CN(c2ccc(OC)c(OC)c2)S(C)(=O)=O)cc1OC | 97 | 6 | -0.7 | -25 | 114 | i | 0.91
Cc1nc2ccccc2n1/N=C/c1ccc([N+](=O)[O-])o1 | nt | 8 | -3.5 | -17 | 78 | i | 0.59
CCC(C)(C)NC(=O)CN(Cc1cccs1)C(=O)CCC(=O)Nc1nccs1 | 101 | -2 | -1.6 | -7 | 111 | i | 0.97

Complete entries from above. Order of values: RGS16-Gao	PKD1 inh	GALR2 ag	Insulin prom inh	Insulin prom inh cell count	HSV replic up	HSV replic up primary fold
Cc1nc2ccccc2n1/N=C/c1ccc([N+](=O)[O-])o1 is entered as nt	8	-3.5	-17	78	i	0.59
COc1ccccc1NC(=O)N1CCN(c2ccccn2)CC1 is entered as 97	3	-1.7	nt	nt	i	0.97

Other compounds follow:
SMILES | RGS16-Gao | PKD1 inh | GALR2 ag | Insulin prom inh | Insulin prom inh cell count | HSV replic up | HSV replic up primary fold
O=S(=O)(Nc1cccc(-c2cn3cccnc3n2)c1)c1ccc(F)cc1 | 107 | -14 | -0.9 | -28 | 124 | i | 0.89
CCCN1CCN(C(=S)Nc2ccc(S(N)(=O)=O)cc2)CC1 | 85 | 3 | nt | nt | nt | i | 0.97
Cc1cccc(Nc2nnc(SC3CCOC3=O)s2)c1C (stereo unspecified) | 103 | -3 | nt | 40 | 92 | i | 0.99
Cc1ccc(Cc2c(C)nc3c(C(=O)O)cnn3c2C)cc1 | nt | -5 | -0.4 | -4 | 97 | nt | nt
CC(C)Cn1c(CN2CCCCC2C)nc2c1c(=O)n(C)c(=O)n2C (stereo unspecified) | 104 | 1 | 0.2 | nt | nt | i | 1
Cc1ccc(-c2cccc(C3CC=CC4C3C(=O)N(Cc3ccccc3)C4c3ccc(C(F)(F)F)cc3)c2)cc1 (stereo unspecified) | 110 | nt | nt | nt | nt | i | 0.89
COc1ccc(CCNC(=O)CSc2ccc(-c3cccs3)nn2)cc1OC | 97 | -5 | nt | 38 | 126 | i | 0.97
Cc1ccc(OCc2nc(-c3ccccn3)n[nH]2)cc1 | 104 | -4 | 73* | -9 | 174 | i | 1.1
COC/C=C/C1=CC2=CC(=O)C(C)(OC(=O)CCC(=O)OC)C(=O)C2=CO1 (stereo unspecified) | 91 | nt | nt | nt | nt | i | 1.1
Cn1cccc1Cc1nnc(SCC(=O)Nc2ccc(F)cc2)n1CCc1ccccc1 | 97 | -14 | 0.4 | nt | nt | i | 0.94
Clc1ccc(SCCn2cncn2)cc1 | 102 | -8 | -6.4 | -29 | 68 | i | 0.99
O=C1CN(C(=O)c2ccccn2)c2ccccc2N1 | 86 | -4 | -0.8 | 58 | 79 | i | 0.97
CCc1ccc(NC(=O)CCc2nc3cccnc3n2Cc2ccc(OC)cc2)cc1 | 8 | -2 | -2.8 | -16 | 103 | i | 0.89
COCC(C)n1c(C)cc(C(=O)CN2C(=O)NC3(CCCCC3C)C2=O)c1C (stereo unspecified) | 106 | 7 | -1.4 | -3 | 115 | i | 0.81
O=C(COC(=O)c1ccc(Cl)nc1)NCCC1=CCCCC1 | 96 | -12 | nt | nt | nt | i | 0.95
Cc1cc(-c2cccc([N+](=O)[O-])c2)nc2ccccc12 | 114 | -7 | -0.8 | nt | nt | i | 0.89
CCCCOc1cc(C(=O)NCCN(CC)CC)c2ccccc2n1 | 102&130 | -2&-2 | -1.3&-1.0 | -5&-68 | 93&107 | i | 0.62&0.79
Cc1sc2cc(-c3cccc([N+](=O)[O-])c3)c(-c3cccc([N+](=O)[O-])c3)c[n+]2c1C | 115 | -10 | 0.4 | -89 | 121 | i | 0.94
